# NS1 function inh: blocks influenza NS1 protein function. 270,000 compounds, 0.4% hits. Potency, µM (titrated, usually from 46.1 µM), for inactives: at the top dose activity, positive = more growth. S. cerevisiae slowed by influenza A NS1, growth recovery by OD600. AID 2326; further: actives are rising curves; nearly all actives have a fitted effect of over 50% in size
#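 Compounds were scored for reversing the slow growth caused by influenza A NS1 in S. cerevisiae, measured by optical density at 600 nm. Assay medium contained 2% galactose at pH 6.0; NS1-free yeast of the same strain were the positive control.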
# Cruzain inh Det: inhibitors of Trypanosoma cruzi cruzain with detergent; 200,000 compounds, 0.43% hits; Potency, µM, inactives show max response, negative = inhibition, actives largely listed as inhibitors; P25779; purified cruzain, Z-FR-AMC fluorescence, 0.01% Triton; active means well fitted curve in the direction sought with a large enough effect; inconclusive means small, poorly fitted or top-dose-only effect, or another doubt; inactive means no such curve, though single readings can be large; an effect the other way counts as inactive or inconclusive;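 further: plate controls were neutral wells for no effect and buffer without enzyme for full effect; nearly all actives have a fitted effect of over 40% in size; top concentration of the series not given in the record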
# Target sequence (P25779 123-467 limits assumed): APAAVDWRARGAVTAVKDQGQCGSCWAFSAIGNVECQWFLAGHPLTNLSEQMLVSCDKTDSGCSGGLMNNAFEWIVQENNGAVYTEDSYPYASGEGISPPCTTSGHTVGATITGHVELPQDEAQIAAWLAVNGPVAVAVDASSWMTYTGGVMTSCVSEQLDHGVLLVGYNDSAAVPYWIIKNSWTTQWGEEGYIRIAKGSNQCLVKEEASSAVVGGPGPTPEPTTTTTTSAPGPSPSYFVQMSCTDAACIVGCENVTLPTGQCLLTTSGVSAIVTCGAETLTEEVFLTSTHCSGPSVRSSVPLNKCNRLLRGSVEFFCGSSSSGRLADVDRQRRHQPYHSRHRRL
#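 Cysteine protease activity tested under reducing, mildly acidic conditions (100 mM sodium acetate pH 5.5, 5 mM DTT) plus 0.01% Triton X-100. Cruzain 1.5 nM; substrate Z-FR-AMC 2 uM; 15 min compound preincubation at room temperature.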
# Lassa entry inh: Lassa virus entry inhibition; Lassa virus pseudotype entry inhibition, cell reporter; control for the full effect not named in the record; Potency, µM (highest dose often 37.9 µM), for inactives: at the highest dose activity change, negative = inhibition, hits mostly inhibitors; 300,000 compounds, 1.2% hits; AID 540256; active means well fitted inhibition curve with a large enough effect; inconclusive means small, poorly fitted or top-dose-only effect, or effect the other way; inactive means flat fitted curve, though single readings scatter; tested in HEK293 cells; further: on the % scale 0 is the no-effect control and ±100 the full control effect; nearly all actives have a fitted effect of over 50% in size; luciferase read-out
# 2A StopGo: lowers the luciferase signal of an FMDV 2A StopGo reporter; human cells with a luciferase reporter of 2A StopGo recoding; control for the full effect not named in the record; Potency, µM (doses to about 57.9 µM), for the others: at the highest dose signal change, negative = less light; 410,000 compounds, 1.2% hits; AID 1159524; active = well fitted falling curve with a large enough effect; inconclusive = small, poorly fitted or top-dose-only effect; inactive = no such curve, though single readings can be large or run the other way; tested in HEK293T cells; further: on the % scale 0 is the no-effect control and ±100 the full control effect; nearly all actives have a fitted effect of over 45% in size; luciferase light after 4 h
# Cruzain noTriton: inhibitors of Trypanosoma cruzi cruzain without detergent. P25779. purified cruzain, Z-FR-AMC fluorescence, no detergent. Potency, µM, for the others: max response, negative = inhibition, hits mostly inhibitors. 200,000 compounds, 2.3% hits; active means well fitted curve in the direction sought with a large enough effect; inconclusive means small, poorly fitted or top-dose-only effect, or another doubt; inactive means no such curve, though single readings can be large; an effect the other way counts as inactive or inconclusive;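 further: plate controls were enzyme without inhibitor for no effect and buffer without enzyme for full effect; nearly all actives have a fitted effect of over 40% in size; top concentration of the series not given in the record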
#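 Purified cruzain at 1.5 nM, pre-incubated 15 min with compound at room temperature in 100 mM sodium acetate pH 5.5, 5 mM DTT, 0.00005% Triton X-100. Reaction started with 2 uM Z-FR-AMC; AMC fluorescence increase over 60 s gives rate.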
# SARS PLpro yeast: inhibitors of SARS-CoV papain-like protease in yeast. 330,000 compounds, 0.19% hits. S. cerevisiae expressing SARS-CoV PLpro, growth rescue; control for the full effect not named in the record. Potency, µM (highest dose often 32.9 µM), for inactives: at the highest dose activity, positive = growth rescue; further: 0% is about no effect; nearly all actives have a fitted effect of over 55% in size; growth read by luminescence after 48 h
# RE007 growth inh: less growth of the S. pombe RE007 Vpr strain; 360,000 compounds, 0.21% hits; Potency, µM (titrated, usually from 92.2 µM), for the others: at the highest dose activity change, negative = less growth; S. pombe RE007 Vpr strain, BacTiter-Glo ATP luminescence, 24 h; control for the full effect not named in the record; AID 651644; active = well fitted falling curve with a large enough effect; inconclusive = small, poorly fitted or top-dose-only effect; inactive = no such curve, though single readings can be large or run the other way;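 further: on the % scale 0 is the no-effect control and ±100 the full control effect; nearly all actives have a fitted effect of over 50% in size; the assay follows cell death caused by Vpr and the record does not say whether a fall means rescue or toxicity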
#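 Fission yeast strain RE007, carrying one chromosomally integrated HIV-1 vpr copy, was seeded at OD 0.01 in PMG+AL medium with 23 nL pinned compound. After 24 h at 30 °C and 99% humidity, viability was read by BacTiter-Glo luminescence.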
# Marburg entry inh: Marburg virus entry inhibition; Marburg virus pseudotyped entry inhibition, cell reporter; control for the full effect not named in the record; about a third of the inactives were read at about 46 µM; Potency, µM (top dose mostly 37.8 µM), inactives show top-dose activity change, negative = inhibition, usual class: inhibitors; 300,000 compounds, 1.8% hits; AID 540276; active = well fitted inhibition curve with a large enough effect; inconclusive = small, poorly fitted or top-dose-only effect, or effect the other way; inactive = flat fitted curve, though single readings scatter; tested in HEK293 cells; about a fifth of its hits are not listed in these tables; further: on the % scale 0 is the no-effect control and ±100 the full control effect; luciferase read-out
# * = called active by the depositor; ? = inconclusive; . = not tested or not shown; & = joins results of further samples; [ ] = another dose, or the depositor's remark. Unless noted, the call rests on the fitted dose curve; in most records, active means well fitted rising curve with a large enough effect; inconclusive means small, poorly fitted or top-dose-only effect; inactive means no such curve, though single readings can be large or run the other way. Potency means the concentration at half of the fitted maximal effect.
# Short forms – A = NS1 function inh; B = Cruzain inh Det; C = Lassa entry inh; D = 2A StopGo; E = Cruzain noTriton; F = SARS PLpro yeast; G = RE007 growth inh; H = Marburg entry inh
CC(=O)c1ccc(OCc2cc(C(=O)N(C)Cc3ccon3)no2)cc1
  A: -12.5%	B: .	C: 7.7%	D: 17.4%	E: .	F: -0.7%	G: 20.6%	H: 4.6%
O=C(NNC(=O)C1CCCN(c2ncccn2)C1)c1ccncc1 (stereo not drawn)
  A: -2.2%	B: .	C: .	D: 2.5%	E: .	F: 0.4%	G: 12.9%	H: .
COC(=O)c1ccc(OCC(=O)c2ccccc2)cc1
  A: -16.4%	B: -0.8%	C: -28.6%	D: 21.6%	E: 3.3%	F: 7.2%	G: -15.9%	H: ?
CCOC(=O)CSc1nc(-c2ccncc2)ccc1C#N
  A: -6.9%	B: -4.4%	C: ?	D: 37.6%[activator]	E: -1.0%	F: -8.2%	G: 6.5%	H: ?
CCCCOC(=O)Cn1c(=O)n(CC(=O)OCCCC)c2ccccc21
  A: -7.0%	B: -4.9%	C: 7.4%	D: -19.2%	E: -3.6%	F: 5.5%	G: -23.1%	H: 13.5%
Cc1ccc(OCC(=O)N(Cc2ccccc2)C2CCS(=O)(=O)C2)c([N+](=O)[O-])n1 (stereo not drawn)
  A: 6.0%	B: -0.9%	C: -6.5%	D: -19.0%	E: -1.8%	F: 0.4%	G: -3.3%	H: 4.4%
COc1ccc(Nc2nc(NCCCN3CCOCC3)nc(N)c2[N+](=O)[O-])cc1
  A: -1.1%	B: .	C: 11.8%[46.1 µM]	D: -13.6%	E: .	F: -0.5%	G: -5.1%	H: ?
OCCN1CCN(c2cc(C(F)(F)F)nc3c(F)cccc23)CC1
  A: -0.8%	B: .	C: .	D: -21.4%	E: .	F: 0.9%	G: 3.6%	H: .
CCN(CC)CC(C)CNC(=O)C1(O)c2ccccc2NC(=O)N1c1ccc(Cl)c(Cl)c1 (stereo not drawn)
  A: 4.6%	B: .	C: .	D: -12.5%	E: .	F: 0.3%	G: -0.5%	H: .
COc1ccc2sc(N(Cc3cccnc3)C(=O)C3CCCCC3)nc2c1
  A: .	B: -8.5%	C: ?	D: -16.9%	E: 26.6%	F: .	G: .	H: .
CCc1nc(SCC(=O)c2ccccc2)c2ccccc2n1
  A: 1.3%	B: .	C: 1.2%[46.1 µM]	D: -5.5%	E: .	F: -0.5%	G: -13.0%	H: 15.4%[46.1 µM]
CCOC(=O)c1sc(NCc2ccco2)c(-c2nc3ccccc3s2)c1N
  A: 0.7%	B: -5.7%	C: -13.9%	D: 2.8%	E: ?	F: -3.4%	G: -14.5%	H: 1.3%
COC(=O)c1ccccc1NC(=O)Nc1ccc(C(=O)N2CCCC2)cc1
  A: -13.5%	B: 3.8%	C: -11.3%	D: -25.3%	E: 11.2%	F: 1.4%	G: 1.8%	H: ?
CC(c1ccccn1)C(C)(O)C(C)c1ccccn1 (stereo not drawn)
  A: .	B: .	C: 5.2%	D: 5.0%	E: .	F: .	G: 1.7%	H: 5.3%
COc1ccccc1Nc1nc(-c2sc(N)nc2C)cs1
  A: 4.2%	B: .	C: .	D: 46.3%[activator]	E: .	F: -6.6%	G: -6.1%	H: .

# Some of the entries so far, with tabs:
SMILES	NS1 function inh	Cruzain inh Det	Lassa entry inh	2A StopGo	Cruzain noTriton	SARS PLpro yeast	RE007 growth inh	Marburg entry inh
CCOC(=O)c1sc(NCc2ccco2)c(-c2nc3ccccc3s2)c1N	0.7%	-5.7%	-13.9%	2.8%	?	-3.4%	-14.5%	1.3%
COC(=O)c1ccccc1NC(=O)Nc1ccc(C(=O)N2CCCC2)cc1	-13.5%	3.8%	-11.3%	-25.3%	11.2%	1.4%	1.8%	?
CC(c1ccccn1)C(C)(O)C(C)c1ccccn1 (stereo not drawn)	.	.	5.2%	5.0%	.	.	1.7%	5.3%

# Back to the main list; the 2 compounds before the break are reprinted first.
# Short forms – A = NS1 function inh; B = Cruzain inh Det; C = Lassa entry inh; D = 2A StopGo; E = Cruzain noTriton; F = SARS PLpro yeast; G = RE007 growth inh; H = Marburg entry inh
CC(c1ccccn1)C(C)(O)C(C)c1ccccn1 (stereo not drawn)
  A: .	B: .	C: 5.2%	D: 5.0%	E: .	F: .	G: 1.7%	H: 5.3%
COc1ccccc1Nc1nc(-c2sc(N)nc2C)cs1
  A: 4.2%	B: .	C: .	D: 46.3%[activator]	E: .	F: -6.6%	G: -6.1%	H: .
O=S(=O)(Nc1cccc(-c2cn3cccnc3n2)c1)c1ccc(F)cc1
  A: 13.7%	B: -5.6%	C: 0.5%	D: 6.9%	E: -4.9%	F: 2.3%	G: 5.6%	H: -3.3%
Cc1ccc(N(O)C(C)(C)C)cc1
  A: .	B: .	C: -16.5%[46.1 µM]	D: -10.6%	E: .	F: .	G: -3.1%	H: ?
CC(C)C1NCCc2c1sc1ccccc21 (stereo not drawn)
  A: .	B: .	C: ?	D: 0.8%	E: .	F: .	G: 6.6%	H: 24.4%
NC(=O)CC(NC(=O)c1cccc(Br)c1)c1ccc(N2CCC(N3CCCC3)CC2)c([N+](=O)[O-])c1 (stereo not drawn)
  A: -5.6%	B: .	C: .	D: -9.6%	E: .	F: -0.2%	G: -7.0%	H: .
CCC(C)(C)NC(=O)CN(Cc1cccs1)C(=O)CCC(=O)Nc1nccs1
  A: 0.6%	B: -0.8%	C: 0.9%	D: .	E: -1.2%	F: -0.8%	G: -2.2%	H: 11.7%
COc1ccc(CCNC(=O)CN(c2ccc(OC)c(OC)c2)S(C)(=O)=O)cc1OC
  A: 3.4%	B: 6.4%	C: -1.3%	D: -18.3%	E: 9.9%	F: 0.5%	G: 6.7%	H: -16.9%&-16.9%
CSc1ccc(NC(=O)C(C)N2CCN(C)CC2)cc1 (stereo not drawn)
  A: -2.9%	B: .	C: .	D: -5.8%	E: .	F: -0.2%	G: 1.0%	H: .
COc1ccccc1C(=O)Nc1ccc(-c2nnn(CC(=O)N3CCN(C(=O)c4ccco4)CC3)n2)cc1
  A: ?	B: .	C: -27.5%	D: -23.3%	E: .	F: -0.7%	G: 2.5%	H: ?
COc1ccc(-c2cn(-c3ccccc3)c(=S)[nH]2)cc1OC
  A: 1.3%	B: .	C: .	D: 48.5%[activator]	E: .	F: 8.1%	G: 9.4%	H: .
CCc1ccc(C2=NN(CCC(=O)N3CCC4(CC3)OCCO4)C(=O)CC2)cc1
  A: .	B: .	C: 0.0%	D: -22.4%	E: .	F: -5.7%	G: 10.3%	H: -9.9%[46.1 µM]
Cc1ccc(S(=O)(=O)NNC(=O)c2sc3nc(C)cc(C)c3c2-n2cccc2)cc1
  A: -28.4%	B: -9.7%	C: 0.6%	D: -14.9%	E: 4.9%	F: -14.0%	G: 24.7%	H: -19.2%[46.1 µM]
Cc1cc(C)c(-c2csc(NC(=O)C3=COCCO3)n2)cc1C
  A: .	B: .	C: ?	D: -9.7%	E: .	F: 0.3%	G: 12.6µM*	H: ?
Cc1ccc(NC(=O)COC(=O)c2cccnc2)c(C)c1
  A: 0.6%	B: .	C: .	D: 6.0%	E: .	F: 0.6%	G: -3.0%	H: .
Cc1ccc(-c2cccc(C3CC=CC4C3C(=O)N(Cc3ccccc3)C4c3ccc(C(F)(F)F)cc3)c2)cc1 (stereo not drawn)
  A: 2.3%	B: .	C: .	D: ?	E: .	F: -3.1%	G: 2.4%	H: .
COc1ccc(CCNC(=O)CSc2ccc(-c3cccs3)nn2)cc1OC
  A: .	B: .	C: ?	D: -10.0%	E: .	F: 0.5%	G: -9.5%	H: 12.3%[46.1 µM]

# Laid out differently: results already given.
# Every second line gives: NS1 function inh | Cruzain inh Det | Lassa entry inh | 2A StopGo | Cruzain noTriton | SARS PLpro yeast | RE007 growth inh | Marburg entry inh
COc1ccccc1C(=O)Nc1ccc(-c2nnn(CC(=O)N3CCN(C(=O)c4ccco4)CC3)n2)cc1
    ? | . | -27.5% | -23.3% | . | -0.7% | 2.5% | ?
COc1ccc(-c2cn(-c3ccccc3)c(=S)[nH]2)cc1OC
    1.3% | . | . | 48.5%[activator] | . | 8.1% | 9.4% | .

# Remaining list, next part
# Short forms – A = NS1 function inh; B = Cruzain inh Det; C = Lassa entry inh; D = 2A StopGo; E = Cruzain noTriton; F = SARS PLpro yeast; G = RE007 growth inh; H = Marburg entry inh
CS(=O)(=O)c1ccc(Oc2ccc(-c3nnco3)cc2)c([N+](=O)[O-])c1
  A: -2.2%	B: .	C: -7.5%[46.1 µM]	D: -0.2%	E: .	F: -0.6%	G: -23.2%	H: 1.2%[46.1 µM]
CCOC(=O)C(=O)Nc1ccc(S(=O)(=O)Nc2nccs2)cc1
  A: 20.5%	B: .	C: .	D: 6.3%	E: .	F: -1.5%	G: 14.1%	H: .
O=C(C1CCN(S(=O)(=O)c2ccc(Cl)s2)CC1)N1CCN(c2ccccc2)CC1
  A: .	B: .	C: -18.9%	D: ?	E: .	F: .	G: 22.4%	H: -26.4%
Cc1ccc(OCc2nc(-c3ccccn3)n[nH]2)cc1
  A: -60.3%	B: -0.4%	C: -25.5%	D: 19.8%	E: 21.6%	F: -0.8%	G: -28.6%	H: 7.8%[46.1 µM]
COC/C=C/C1=CC2=CC(=O)C(C)(OC(=O)CCC(=O)OC)C(=O)C2=CO1 (stereo not drawn)
  A: -0.3%	B: -0.7%	C: .	D: .	E: 20.2%	F: 1.2%	G: .	H: .
Cc1ncc(CO)c2c1Oc1nc(-c3ccc(F)cc3)nc(SCC(=O)N3CCCCC3)c1C2
  A: .	B: -1.8%	C: ?	D: ?	E: 2.7%	F: .	G: .	H: .

# Hits appear at their usual frequency; about 4.6% have a hit in one of these screens.
